Bioassay records as filed in PubChem BioAssay.
PrP 5UTR inh: suppresses PrP 5' UTR mRNA reporter expression | cell-based PrP 5' UTR mRNA reporter, plate reader | inhibition, % (no concentration beside the values) | 340,000 compounds, 0.35% hits | AID 488862;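 active means every replicate at 50% or more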;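 further: 0 = median of the neutral control wells; tested in H4 reporter cells; numbers are from one replicate; inactives centre near -14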
BJeLR viability: kills HRASV12-expressing BJeLR cells; AID 1554; BJeLR (HRASV12) viability, CellTiter-Glo ATP luminescence, 48 h; reference of the scale not given here; inhibition, % (test concentration not listed); 300,000 compounds, 0.17% hits;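 active means replicate mean above 50%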;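 further: 50 nL library stock added to about 25 µL; numbers are from one replicate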
Mtb hypoxia inh: reduces hypoxia-regulated biosensor signal in M. tuberculosis; M. tuberculosis hypoxia-regulated fluorescent reporter, fluorescence; AID 1159583; 300,000 compounds, 0.1% hits; fluorescence inhibition, % (concentration not given with the values);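 active means 35 to 45% if threefold the growth effect, above 45% if 1.5-fold the growth effect; inactive means the rest, general growth blockers included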;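 further: wells of about 50 µL received 100 nL stock; 0% = vehicle wells and 100% = reference inhibitor wells; whole bacteria with a GFP reporter of the hypoxia response; strong numbers were not always called active; many hits fall short of the cut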
Sa RN4220 lethal: kills Staphylococcus aureus RN4220; S. aureus RN4220 growth, OD600, 16 h; inhibition, % (no concentration beside the values); 330,000 compounds, 0.33% hits;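 active means z-score of -3 or lower and OD600 up to 0.18 on both plates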;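 further: plate controls were untreated cells for no effect and reference antibiotic for full effect; stock transfer was 100 nL into about 80 µL; one replicate is shown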
ugtP null kill: kills S. aureus RN4220 lacking UgtP; S. aureus RN4220 ugtP deletion, OD600 growth, 16 h; some inactives read as strong as hits; growth inhibition, % (no concentration beside the values); 330,000 compounds, 0.54% hits; AID 1259309;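 active means z-score under -3 and OD600 up to 0.15 on both plates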;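 further: plate controls were untreated wells for no effect and antibiotic for full effect; wells of about 80 µL received 100 nL stock; the first replicate is given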
Bead autofluor: flagged as autofluorescent in microsphere protease counterscreen | compound autofluorescence counterscreen, microsphere flow cytometry; active compounds read high | fluorescence intensity (no concentration beside the values) | 360,000 compounds, 3.1% hits | AID 624483;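 active means at least 3 SD above the mean of all compounds, about 16000 in these data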;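 further: 100 nL of 1 mM stock went into each well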
Mtb hypoxia inh growth: recorded beside Mtb hypoxia inh, whose call it bears; growth inhibition, %; measured here: M. tuberculosis growth (absorbance);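 0% = vehicle and 100% = reference antibiotic; read after six days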
The depositor's hits bear a star; · = not tested or not shown.

SMILES	PrP 5UTR inh	BJeLR viability	Mtb hypoxia inh	Mtb hypoxia inh growth	Sa RN4220 lethal	ugtP null kill	Bead autofluor
CCOC(=O)c1cnc2ccc(OCC)cc2c1N(C)Cc1ccccc1	-18	1	10	1	-16	-15	8299
CCOC(=O)CSc1nnc([C@H](C)NC(=O)OC(C)(C)C)o1	-24	2	·	·	-1.8	-4	4758
Cc1ccc(OCCCC(=O)Nc2ccc3c(c2)OCCO3)cc1	-17	·	5	9	4.4	2	3619
CCC(=O)N(Cc1ccco1)c1nc(-c2ccc(OC)cc2)cs1	-29	-6	3	8	-13	4	3119
Cc1cc(C)cc(NC(=O)Nc2ccc3c(c2)CCC3)c1	-12	7	0	1	3.7	1	4595
Cc1c(CC(=O)N2C[C@H]3C[C@@H](C2)c2cccc(=O)n2C3)c(=O)oc2cc3occ(C(C)(C)C)c3cc12	-21	7	·	·	1.4	1	6461
COc1cc(O)c2c(=O)cc(-c3ccccc3)oc2c1	-31	-4	·	·	26	10	5511
O=C(CCc1ccccc1F)N1CCN(c2ccccc2)CC1	-26	4	·	·	4.4	0	3626
COc1ccccc1-c1csc2ncnc(Sc3nnnn3C)c12	-10	·	10	12	2.4	0	4758
CCOCC(=O)Nc1cc(C(=O)Nc2ccc(F)cc2)ccc1Cl	·	6	10	4	9.8	-2	·
COc1cc(C=NNC(=O)c2sc3nc(C)cc(C)c3c2N)ccc1O	·	·	-12	-4	0.2	-10	·
CN(C)C(=O)CSc1nc(-c2cccs2)c(-c2cccs2)[nH]1	-24	5	7	13	1.7	10	3485
COc1ccc(-c2cc(C(F)(F)F)n3nc(C(=O)O)cc3n2)cc1OC	-23	5	·	·	-3.3	2	4123
Cc1cccc(C)c1NC(=O)CN1CCc2ccccc2C1	-14	-16	·	·	·	·	3645
C/C(=C\c1ccc(C)o1)C(=O)c1c(C)cc(C)[nH]c1=O	-23	-10	-5	7	-3.0	-1	2683
O=C(CSCc1ccccc1Br)N/N=C/c1ccc2c(c1)OCO2	-23	-1	·	·	·	·	9169
COc1ccccc1NN=Cc1c(CO)cnc(C)c1O	·	·	1	-12	2.1	-5	·
CC(C)C(=O)NC(=S)Nc1ccccn1	-13	4	·	·	-0.1	3	3905
CCN(Cc1ccccc1)C(=O)CN1C(=S)NC(C)(C)CC1C (configuration not stated)	-7	-4	17	6	5.0	3	2541
COc1cc(C(=O)NCCCNc2nc3cc(C)cc(C)c3cc2C#N)cc(OC)c1OC	1	-4	12	11	5.0	0	3296
Cc1cccc(NC(=O)c2sc3nc(-c4ccc(F)cc4)cn3c2C)n1	-43	-1	3	2	2.2	-17	19776*
CC(C)CN(Cc1c(O)ccc2ccccc12)CC(C)C	-8	-1	·	·	·	·	4509
Cc1ccc(CNC(=O)c2ccc(Cl)c(S(=O)(=O)N3CCCCC3)c2)cc1	-16	·	21	25	-0.2	7	6452
CCOC(=O)N1CCN(S(=O)(=O)c2ccc3c(c2)CCN3C(=O)C2CC2)CC1	-8	1	·	·	-2.9	2	4668
COc1cc([N+](=O)[O-])ccc1NC(=O)CSc1nc2ccccc2n1-c1ccccc1	·	-4	-5	10	9.2	-5	·

Laid out differently: 21 of the compounds above.
mol,PrP 5UTR inh,BJeLR viability,Mtb hypoxia inh,Mtb hypoxia inh growth,Sa RN4220 lethal,ugtP null kill,Bead autofluor
CCOC(=O)c1cnc2ccc(OCC)cc2c1N(C)Cc1ccccc1,-18,1,10,1,-16,-15,8299
CCOC(=O)CSc1nnc([C@H](C)NC(=O)OC(C)(C)C)o1,-24,2,·,·,-1.8,-4,4758
Cc1ccc(OCCCC(=O)Nc2ccc3c(c2)OCCO3)cc1,-17,·,5,9,4.4,2,3619
CCC(=O)N(Cc1ccco1)c1nc(-c2ccc(OC)cc2)cs1,-29,-6,3,8,-13,4,3119
Cc1cc(C)cc(NC(=O)Nc2ccc3c(c2)CCC3)c1,-12,7,0,1,3.7,1,4595
Cc1c(CC(=O)N2C[C@H]3C[C@@H](C2)c2cccc(=O)n2C3)c(=O)oc2cc3occ(C(C)(C)C)c3cc12,-21,7,·,·,1.4,1,6461
COc1cc(O)c2c(=O)cc(-c3ccccc3)oc2c1,-31,-4,·,·,26,10,5511
O=C(CCc1ccccc1F)N1CCN(c2ccccc2)CC1,-26,4,·,·,4.4,0,3626
COc1ccccc1-c1csc2ncnc(Sc3nnnn3C)c12,-10,·,10,12,2.4,0,4758
CCOCC(=O)Nc1cc(C(=O)Nc2ccc(F)cc2)ccc1Cl,·,6,10,4,9.8,-2,·
COc1cc(C=NNC(=O)c2sc3nc(C)cc(C)c3c2N)ccc1O,·,·,-12,-4,0.2,-10,·
CN(C)C(=O)CSc1nc(-c2cccs2)c(-c2cccs2)[nH]1,-24,5,7,13,1.7,10,3485
COc1ccc(-c2cc(C(F)(F)F)n3nc(C(=O)O)cc3n2)cc1OC,-23,5,·,·,-3.3,2,4123
Cc1cccc(C)c1NC(=O)CN1CCc2ccccc2C1,-14,-16,·,·,·,·,3645
C/C(=C\c1ccc(C)o1)C(=O)c1c(C)cc(C)[nH]c1=O,-23,-10,-5,7,-3.0,-1,2683
O=C(CSCc1ccccc1Br)N/N=C/c1ccc2c(c1)OCO2,-23,-1,·,·,·,·,9169
COc1ccccc1NN=Cc1c(CO)cnc(C)c1O,·,·,1,-12,2.1,-5,·
CC(C)C(=O)NC(=S)Nc1ccccn1,-13,4,·,·,-0.1,3,3905
CCN(Cc1ccccc1)C(=O)CN1C(=S)NC(C)(C)CC1C (configuration not stated),-7,-4,17,6,5.0,3,2541
COc1cc(C(=O)NCCCNc2nc3cc(C)cc(C)c3cc2C#N)cc(OC)c1OC,1,-4,12,11,5.0,0,3296
Cc1cccc(NC(=O)c2sc3nc(-c4ccc(F)cc4)cn3c2C)n1,-43,-1,3,2,2.2,-17,19776*

Next structures.
SMILES	PrP 5UTR inh	BJeLR viability	Mtb hypoxia inh	Mtb hypoxia inh growth	Sa RN4220 lethal	ugtP null kill	Bead autofluor
COC(=O)c1sc(NC(=O)CSc2nnc(C(C)C)n2C)nc1C	-12	-15	·	·	-1.9	-6	2903
COc1ccc(CCNC(=O)COc2ccc(C)nc2[N+](=O)[O-])cc1	-12	0	4	5	0.3	-13	4276
CN(c1ccc(OCC(=O)N2CCN(C/C=C/c3ccccc3)CC2)cc1)S(=O)(=O)c1cccs1	2	-7	2	-1	-0.2	6	5337
CCOC(=O)/C(=C/c1ccc(F)cc1)NC(C)=O	-24	3	3	-1	5.6	6	2153
Cc1nn(-c2ccccc2)c(N)c1C1(O)C(=O)Nc2ccccc21 (configuration not stated)	0	7	-2	-1	3.2	-4	5058
CCn1c(Cc2c(C)[nH]c3ccccc23)nnc1SCC(=O)NCc1ccco1	-13	·	·	·	-0.6	10	2747
CCCCCn1c(=S)[nH]c2ncccc2c1=O	-8	-9	6	4	3.0	0	3223
CC(C)NC(=S)N/N=C/C1=CCC2CC1C2(C)C (configuration not stated)	-33	-16	·	·	·	·	2598
CC(=O)Nc1ccc(NC(=O)CSc2nnc(C)c(=O)n2N)cc1	-12	-8	-7	0	2.6	9	4678
COc1cccc(NC(=O)NC2CCCCCCC2)c1	-6	-13	·	·	1.6	-11	3881
CCCc1cc(=O)[nH]c(SCCOc2ccc(OCC)cc2)n1	-12	0	·	·	1.2	13	2137
COc1cc(CC(=O)NCC(C)(C)N2CCOCC2)cc(OC)c1OC	-27	5	12	2	1.3	2	3708
O=C1OCCC1Sc1nc2ccccc2c(=O)n1Cc1ccccc1 (configuration not stated)	-18	-8	0	11	1.4	6	4199
CCOC(=O)Nc1sc(=S)n(C)c1C	-5	-10	3	1	1.7	-1	8095
CC/C(O)=C1\C(=O)CC(C)(C)CC1=NCCc1nc2ccccc2[nH]1	-14	-9	·	·	·	·	3499
O=P(Cc1ccncc1)(c1ccccc1)c1ccccc1	-6	2	6	3	3.8	-7	3088
CC1(C)SC(=Nc2ccccc2)N(S(=O)(=O)c2ccccc2)C1=O	-29	-3	6	8	5.8	10	11215
Cc1cc(C(=O)c2ccc3ccccc3c2)c(C)o1	·	-1	0	11	6.2	-1	5940
CC(NC(=O)c1cncc(Br)c1)c1ccc(S(N)(=O)=O)cc1 (configuration not stated)	-8	11	·	·	-0.4	3	3796
COc1ccc(CNC(=S)Nc2ccc(Br)cc2)cc1	-33	-2	13	11	-6.3	12	7786
O=C(CO/N=C/c1ccc(OC(F)F)cc1)NCc1cccs1	-10	22	·	·	·	·	2326
CN(C)S(=O)(=O)c1ccc(Cl)c(C(=O)Nc2cccc([N+](=O)[O-])c2)c1	-19	12	-3	7	-4.2	-1	4042
COc1cc(-c2nnc(SCc3cccnc3)n2C)cc(OC)c1O	-27	-2	3	10	6.3	-2	7896
C=CCn1c(C)nnc1SCC(=O)Nc1nc(C)c(C(=O)N(C)C)s1	-7	-4	-2	-1	3.8	3	5448
CCOC(=O)c1ccc(NC(=O)c2nc[nH]c2C(=O)N[C@@H](C)C(=O)OC(C)(C)C)cc1	-8	7	·	·	·	·	3542
Additional results follow.
SMILES	PrP 5UTR inh	BJeLR viability	Mtb hypoxia inh	Mtb hypoxia inh growth	Sa RN4220 lethal	ugtP null kill	Bead autofluor
O=C(Cc1ccc(Br)cc1)OCC(=O)c1ccc[nH]1	-17	·	8	6	6.1	2	3429
CCC1CCCCN1C(=O)CSc1nnc(CNC(=O)c2cc(OC)c(OC)c(OC)c2)o1 (configuration not stated)	-18	3	·	·	-0.3	5	3715
Cc1ccnn1CC(=O)NN=Cc1ccc([N+](=O)[O-])s1	·	·	3	-3	17	15	·
CN(C)C(=O)CSc1nc2ccc(N3C(=O)c4ccccc4C3=O)cc2s1	-19	-5	7	7	6.6	5	4441
CC(C)(C)c1ccc(C(=O)OCC(=O)Nc2sc3c(c2C#N)CCC3)cc1	-28	-14	7	4	8.2	-4	6712
C[C@@]12CCC=C[C@H]1[C@H](c1ccc(/C=C/c3ccccc3)cc1F)N(Cc1ccccc1)C2=O	-12	-8	·	·	·	·	4462
COc1ccccc1OCc1ccc(C(=O)NCc2ccco2)o1	-2	-2	17	6	4.8	4	11714
CN(C)S(=O)(=O)c1ccc(C(=O)NCC(=O)N/N=C/c2cccs2)cc1	-11	3	·	·	·	·	2648
CC(SCc1ccccc1)C(=O)N/N=C/c1ccc2c(c1)OCO2 (configuration not stated)	-6	-6	·	·	·	·	4865
CCOC(=O)[C@@H]1[C@H]2COc3ccc(Br)cc3[C@@H]2N2C(=O)N(c3ccc(F)cc3)C(=O)[C@]12C	-4	-4	·	·	·	·	3032
Cc1ccccc1NC(=O)c1ccccc1NC(=O)c1ccco1	-23	-9	·	·	15	6	3441
COc1ccc(N2CCN(C(CNC(=O)C(=O)NC3CC3)c3ccco3)CC2)cc1 (configuration not stated)	-18	5	6	4	2.6	5	5327
O=[N+]([O-])c1[nH]cnc1Br	-8	·	13	13	1.4	0	3778
CCN1CCN(CCCNC(=O)c2ccc3c(c2)N(Cc2ccc(C)cc2)CCS3)CC1	-9	7	11	7	0.1	0	5785
Nc1ccc(CCn2ccnc2)cc1	-10	1	6	0	-1.5	-4	2854
CC1CCN(S(=O)(=O)N2CCCC(C(=O)NCc3ccc(F)cc3)C2)CC1 (configuration not stated)	-19	1	·	·	·	·	6251
CCc1ccc(C2CC(c3ccc(F)cc3)Nc3nc(N)nn32)cc1 (configuration not stated)	-12	-7	·	·	3.1	-6	6357
